H5N1 CPE = MDCK cell protection from H5N1 avian flu. cytopathic effect, luminescence, 72 h; stronger effect = higher value; no value below 0 was filed and about half of the inactive calls have no number; reference of the scale not given here. inhibition, % at 50 µM. 96,000 tested, 0.07% active; in the data active means inhibition above about 25%
* marks the source's active call; other numbers are inactive results. The list is partial, so the mix of outcomes need not match the whole.

How did Cc1cccc(-c2nnc(SCc3ccc(C#N)cc3)n2Cc2ccco2)c1 do in these assays?
H5N1 CPE: inactive

Results for COC(=O)C1=C(C)NC(=O)CC1c1cccc(Cl)c1Cl (stereo not drawn) ?
H5N1 CPE: 0.6

How did CN(Cc1ccccc1)S(=O)(=O)c1ccc(OCC(=O)N2CCOCC2)cc1 do in these assays?
H5N1 CPE: 0.1

How did Cc1cc(S(=O)(=O)NC2CCCCC2)ccc1OCC(=O)N1CCOCC1 do in these assays?
H5N1 CPE: 0.4

What do the screens show for `CN1CCN(C(=O)c2c(NC(=O)c3ccco3)sc3c2CCC(C(C)(C)C)C3)CC1` (stereo not drawn)?
H5N1 CPE: inactive

How did CCOc1nc2c(c(=O)n(C)c(=O)n2C)n1Cc1ccccc1Cl do in these assays?
H5N1 CPE: 7.8

How did Cc1occc1C(=O)N1N=C(C2CC2)CC1(O)C(F)(F)F (stereo not drawn) do in these assays?
H5N1 CPE: inactive

How did COc1ccc(C2NCCC3(O)CCCCC23)c(OC)c1OC (stereo not drawn) do in these assays?
H5N1 CPE: 0.3

What do the screens show for `Cc1ccc(SCC(=O)NCCCN2CCOCC2)cc1`?
H5N1 CPE: 1.2

What do the screens show for `O=S1(=O)C=C(SCCN2CCCCC2)c2ccccc21`?
H5N1 CPE: 6.9

How did Cc1nc2nc(SCC(N)=O)[nH]c2cc1Br do in these assays?
H5N1 CPE: inactive

What do the screens show for `CC(=O)N1CCN(Cc2nc3cc(NC(=O)c4ccc(Cl)cc4)ccc3n2C)CC1`?
H5N1 CPE: 0.5

How did CCC(C)(C(=O)NC1CCCCC1)N(C(=O)c1ccccn1)c1ccc(C)cc1 (stereo not drawn) do in these assays?
H5N1 CPE: 0.6

Results for O=C(Nc1ccc(N2CCN(C(=O)c3ccccc3)CC2)c(Cl)c1)c1cccnc1 ?
H5N1 CPE: 0.2

Results for OC(COc1ccc(OCc2ccccc2)cc1)CN1CCOCC1 (stereo not drawn) ?
H5N1 CPE: 0.4

How did CSc1nc(C)c(C(=O)Nc2ccccc2)c(C)c1C#N do in these assays?
H5N1 CPE: inactive

Results for CCOc1cc2[nH]c(=S)n(CCN3CCCCC3CC)c(=O)c2cc1OCC (stereo not drawn) ?
H5N1 CPE: inactive

Results for CC1(C)Cc2c(sc3nc(-c4ccccc4Cl)n(N)c(=O)c23)CO1 ?
H5N1 CPE: 0.3

What do the screens show for `Cc1nn(C)c(C)c1S(=O)(=O)N1CCCC(C(=O)NC2CCCCC2)C1` (stereo not drawn)?
H5N1 CPE: inactive

What do the screens show for `COc1ccc(CC(=O)N2CCNC2=O)cc1`?
H5N1 CPE: inactive

Reprinted at random: 6 compounds from above, in no set order.
Results for OC(COc1ccc(OCc2ccccc2)cc1)CN1CCOCC1 (stereo not drawn) ?
H5N1 CPE: 0.4

Results for O=C(Nc1ccc(N2CCN(C(=O)c3ccccc3)CC2)c(Cl)c1)c1cccnc1 ?
H5N1 CPE: 0.2

How did CCOc1nc2c(c(=O)n(C)c(=O)n2C)n1Cc1ccccc1Cl do in these assays?
H5N1 CPE: 7.8

How did Cc1occc1C(=O)N1N=C(C2CC2)CC1(O)C(F)(F)F (stereo not drawn) do in these assays?
H5N1 CPE: inactive

Results for CCOc1cc2[nH]c(=S)n(CCN3CCCCC3CC)c(=O)c2cc1OCC (stereo not drawn) ?
H5N1 CPE: inactive

What do the screens show for `O=S1(=O)C=C(SCCN2CCCCC2)c2ccccc21`?
H5N1 CPE: 6.9

Back to the main list, repeating the 2 entries before the break.
What do the screens show for `Cc1nn(C)c(C)c1S(=O)(=O)N1CCCC(C(=O)NC2CCCCC2)C1` (stereo not drawn)?
H5N1 CPE: inactive

What do the screens show for `COc1ccc(CC(=O)N2CCNC2=O)cc1`?
H5N1 CPE: inactive

How did O=C(c1ccc(F)cc1)N1CCCCC(Sc2nnc3ccccn23)C1=O (stereo not drawn) do in these assays?
H5N1 CPE: inactive

What do the screens show for `CCCCCCCCCc1nc(N)n[nH]1`?
H5N1 CPE: 2.1

How did Cc1cc(SCC#N)n2nc(C)c(-c3ccccc3)c2n1 do in these assays?
H5N1 CPE: 0.2

What do the screens show for `CCc1c(C(=O)NCc2ccc3c(c2)OCO3)[nH]c(C)c1C(C)=O`?
H5N1 CPE: inactive

Results for Cc1ccc(N2CCN(C(=O)c3ccccc3F)CC2)c(C)c1 ?
H5N1 CPE: 0.2

How did CCOC(=O)Cc1csc(NC(=O)CC)n1 do in these assays?
H5N1 CPE: 0.1

How did COC(=O)c1ccc(C2C(C(C)=O)=C(O)C(=O)N2CCO)cc1 (stereo not drawn) do in these assays?
H5N1 CPE: inactive

How did COc1cc(C(c2sc3nc(C)nn3c2O)N2CCC3(CC2)OCCO3)cc(OC)c1OC (stereo not drawn) do in these assays?
H5N1 CPE: 0.5

Results for Cc1ccc(-c2noc(CN3CCCCC3)n2)cc1 ?
H5N1 CPE: inactive

What do the screens show for `Cc1cccc(C)c1NC(=O)C(=O)NCCOc1ccc(Cl)cc1`?
H5N1 CPE: 0.2

Results for COc1cc(C(=O)OCC(=O)N(C)C)cc(NC(=O)c2ccco2)c1OC ?
H5N1 CPE: inactive

What do the screens show for `CCOC(=O)c1[nH]c(C)c(C(=O)Nc2ccccc2C)c1C`?
H5N1 CPE: inactive

What do the screens show for `CN(C)CCCOC(=O)C1c2ccccc2Oc2ccccc21`?
H5N1 CPE: 0.1

How did O=C(O)c1cccc(Cn2c(Cl)c(/C=N/NC(=O)c3ccccc3Cl)sc2=O)c1 do in these assays?
H5N1 CPE: 0.4

How did CCN(CC)C(=O)CC(c1ccc(F)cc1)c1ccco1 (stereo not drawn) do in these assays?
H5N1 CPE: 0.1

Results for COc1ccc(N2CCN(CCNC(=O)c3ccc(NC(=O)C4CCCO4)cc3)CC2)cc1 (stereo not drawn) ?
H5N1 CPE: 0.9

How did COc1cccc(C(=O)NCCC2=CCCCC2)c1 do in these assays?
H5N1 CPE: 0.3

How did CN(Cc1ccccc1)C(=O)N[C@@H](Cc1ccccc1)C(=O)O do in these assays?
H5N1 CPE: inactive

Results for Clc1ccc(Cc2nc(-c3cccnc3)no2)cc1 ?
H5N1 CPE: inactive

How did O=C(Nc1ccncc1)C1CC1c1ccccc1 (stereo not drawn) do in these assays?
H5N1 CPE: inactive

Results for CCCc1nnc(NC(=O)CCC(=O)N2CCN(CCn3c(C)ccc3C)CC2)s1 ?
H5N1 CPE: 0.4

Results for Cc1nc2ccc(NC(=O)c3cccc(S(=O)(=O)N4CC(C)OC(C)C4)c3)cc2s1 (stereo not drawn) ?
H5N1 CPE: inactive

How did CCOc1ccccc1NC(=O)COc1cccc(-n2cnnn2)c1 do in these assays?
H5N1 CPE: 1.0

How did COc1ccc(C(=O)NCCn2cc(SCC(=O)NCc3ccco3)c3ccccc32)cc1 do in these assays?
H5N1 CPE: inactive

How did CCCCn1c(SCc2ccc(C(=O)OC)o2)nc2cc(S(N)(=O)=O)ccc21 do in these assays?
H5N1 CPE: 2.0

What do the screens show for `CCOC(=O)C1CCCN(Cc2cc(OC)c(O)c(OC)c2)C1` (stereo not drawn)?
H5N1 CPE: 0.7

How did C=C(Br)CN1CCN(CC(=C)Br)CC1 do in these assays?
H5N1 CPE: 0.8

Results for CCNc1nc(SC(C(C)=O)C(C)=O)nc(N(C)C)n1 ?
H5N1 CPE: inactive

How did COCCCn1c(=O)c2ccccc2c2ccccc2c1=O do in these assays?
H5N1 CPE: 0.8

Results for O=C(NCCc1ccccc1)C1CCN(S(=O)(=O)c2ccccc2)CC1 ?
H5N1 CPE: 0.5

Results for Cc1ccc(C(=O)O)cc1-c1ccc(/C=C2/NC(=O)N(c3ccccc3)C2=O)o1 ?
H5N1 CPE: 0.3

Results for CCCCN(CCNP(=O)(OCC)OCC)CP(=O)(OCC)OCC ?
H5N1 CPE: inactive

Results for Cc1cc(NS(=O)(=O)c2ccccc2)no1 ?
H5N1 CPE: inactive

How did CC1Cc2ccccc2N1C(=O)C1CCCCN1S(=O)(=O)c1ccccc1 (stereo not drawn) do in these assays?
H5N1 CPE: inactive

Results for CCc1ccc2[nH]c(=O)c(CN(CCN(CC)CC)C(=O)Nc3ccccc3OC)cc2c1 ?
H5N1 CPE: inactive

How did C=CCn1c(SCC(=O)Nc2sccc2C(N)=O)nc2sc(CC)cc2c1=O do in these assays?
H5N1 CPE: 5.6

Results for c1ccc(-c2noc(-c3ccco3)n2)nc1 ?
H5N1 CPE: 0.7

Results for COc1ccccc1NC(=O)c1c(C)cc(=O)oc1C ?
H5N1 CPE: inactive

How did COc1ccc(-n2c(Cc3cccn3C)nnc2SCC(=O)NCCc2ccccc2)cc1 do in these assays?
H5N1 CPE: 0.2

How did CC(C)n1nnnc1SCC(=O)NCc1ccco1 do in these assays?
H5N1 CPE: inactive

3 structures already listed, ordered by formula weight, descending.
How did CC1Cc2ccccc2N1C(=O)C1CCCCN1S(=O)(=O)c1ccccc1 (stereo not drawn) do in these assays?
H5N1 CPE: inactive

How did CC(C)n1nnnc1SCC(=O)NCc1ccco1 do in these assays?
H5N1 CPE: inactive

Results for c1ccc(-c2noc(-c3ccco3)n2)nc1 ?
H5N1 CPE: 0.7

Going on with the list:
What do the screens show for `CC(C)NC(=O)C(=O)N/N=C/c1ccco1`?
H5N1 CPE: 4.8

How did COc1ccc(CCNC(=O)c2cc(-c3cc(Cl)cc(Cl)c3)oc2C)cc1 do in these assays?
H5N1 CPE: inactive

Results for CCOC(=O)c1c(-c2ccc(C)o2)csc1NC(=O)CN1CCOCC1 ?
H5N1 CPE: 0.6

Results for CCOC(=O)N1CCN(C(=O)c2ccc3nc4ccc(Cl)cc4c(=O)n3c2)CC1 ?
H5N1 CPE: inactive

Results for C/C(=C\C(=O)O)C12CC3CC(CC(C3)C1)C2 ?
H5N1 CPE: 1.7

Results for CCOC(=O)Cn1ncc2c(=O)oc3ccccc3c21 ?
H5N1 CPE: inactive

How did COCCNC(=O)c1csc2c1CCCC2 do in these assays?
H5N1 CPE: 1.4

Results for CCOC(=O)CNC(=O)CNC(=O)c1ccc(OC)cc1 ?
H5N1 CPE: inactive

What do the screens show for `O=C(Nc1ccc([N+](=O)[O-])cc1)C1C(c2ccccc2)=C1c1ccccc1`?
H5N1 CPE: 0.3

What do the screens show for `O=c1c([N+](=O)[O-])cc(C(F)(F)F)cn1Cc1c(Cl)cccc1Cl`?
H5N1 CPE: inactive

What do the screens show for `COc1ccc(S(=O)(=O)N2CCN(c3ccc4nnc(-c5ccc(F)cc5)n4n3)CC2)cc1`?
H5N1 CPE: 4.3

Results for COc1ccc(NC(=O)CN2CCN(c3ccccc3F)CC2)cc1 ?
H5N1 CPE: inactive

Results for COc1ccc(CCNC(=O)NC(C(F)(F)F)C(F)(F)F)cc1OC ?
H5N1 CPE: inactive

Results for Clc1ccccc1CSc1nc2ccncc2[nH]1 ?
H5N1 CPE: inactive

What do the screens show for `CCCCNC(=O)C1CCCN1C(=O)Nc1cccc(OC)c1` (stereo not drawn)?
H5N1 CPE: 0.5

What do the screens show for `Cc1ccc(NC2=NCC(=O)N2CCc2ccccc2)cc1C`?
H5N1 CPE: inactive

What do the screens show for `CCOC(=O)c1cnn(-c2nc3c(C)cccc3s2)c1C`?
H5N1 CPE: inactive

How did CN(C)c1ccc2c(O)cc(=O)n(C)c2c1 do in these assays?
H5N1 CPE: inactive

Results for Cc1cc(NC(=O)CCC(=O)N(CC(=O)NC2CCCC2)Cc2ccccc2Cl)no1 ?
H5N1 CPE: inactive

Results for CC(=O)N(C(C)=O)C1=C(C#N)C2(CCCCC2)Cc2ccccc21 ?
H5N1 CPE: inactive

What do the screens show for `CC1CN(c2nc3c(c(=O)n(Cc4ccc(Cl)cc4)c(=O)n3C)n2C)CC(C)O1` (stereo not drawn)?
H5N1 CPE: 5.4

Results for COC(=O)C1=C(C)Nc2nnnn2C1c1cc(OC)ccc1OC (stereo not drawn) ?
H5N1 CPE: 1.5

What do the screens show for `CC(C)NC(=O)c1cc(C(=O)c2cc(Cl)ccc2O)coc1=N`?
H5N1 CPE: 0.2

What do the screens show for `Cn1c(=O)c2ncn(CC(=O)Nc3cccc(-c4nc5ccccc5s4)c3)c2n(C)c1=O`?
H5N1 CPE: inactive

Results for C=CCCC(=O)Nc1nc(C)c(-c2csc(Nc3ccc(Cl)cc3)n2)s1 ?
H5N1 CPE: inactive

How did Cn1nc(CC(=O)N2CCN(c3ccccc3)CC2)c2ccccc2c1=O do in these assays?
H5N1 CPE: 2.8

How did Cc1sc(NC(=O)CSc2nc(N)n(CC(=O)c3ccccc3)n2)c(C#N)c1C do in these assays?
H5N1 CPE: inactive

How did O=[N+]([O-])C(/C=C(\Cl)[N+](=O)[O-])=C1N(Cc2ccc(Cl)nc2)CCN1Cc1ccc(Cl)nc1 do in these assays?
H5N1 CPE: inactive

Results for Cc1cc(C)n2nc(C(=O)Nc3ccc(N4CCOCC4)cc3)nc2n1 ?
H5N1 CPE: 0.9

What do the screens show for `Cc1nc2ccc(NC(=O)C3CCN(S(=O)(=O)c4cccs4)CC3)cc2s1`?
H5N1 CPE: 30.7*

What do the screens show for `CCn1c(COc2ccccc2C)nnc1SCC(=O)N1CCCCC1`?
H5N1 CPE: 0.2

Results for CCCCCC(=O)N1CCN(CCN=CC2=C(O)CC(c3ccc(OC)c(OC)c3)CC2=O)CC1 (stereo not drawn) ?
H5N1 CPE: inactive

What do the screens show for `CC1=CC(C)(C)N(C(=O)c2ccccc2)c2ccc(C)cc21`?
H5N1 CPE: inactive

How did CCOC(=O)C1CCN(S(=O)(=O)c2ccc(-n3cnnn3)c(C)c2)CC1 do in these assays?
H5N1 CPE: inactive

Results for Cc1ccc(C(=O)NCCCNCCCN(C)C)cn1 ?
H5N1 CPE: 1.0

Results for O=C(Nc1ccc(F)cc1)C1CCCN(S(=O)(=O)c2cccc3cccnc23)C1 (stereo not drawn) ?
H5N1 CPE: 2.2

What do the screens show for `Cc1c(C)c2cc(Cl)c(O)c(CN3CCN(C)CC3)c2oc1=O`?
H5N1 CPE: 0.3

How did CCN(CC)S(=O)(=O)c1ccc(Nc2cc(C)nc3ncnn23)cc1 do in these assays?
H5N1 CPE: 0.6

What do the screens show for `Cn1c(Cc2csc(N)n2)nnc1SC/C=C/c1ccccc1`?
H5N1 CPE: inactive

High-throughput results (PubChem)
